B2AR ag – activates human beta-2 adrenergic receptor causing internalization; P07550; hit rate 0.43% among 340,000; response, % (concentration not given with the values); Am2.2-beta2AR cells, FAP receptor internalization, flow cytometry; reference of the scale not given here;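 active = response above a set limit, near 3 SD of response in nonfluorescent compounds, cut at about 42% in these data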;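 note: stock transfer was 100 nL into about 11 µL; a reference agonist was the positive control; negative values mostly stem from fluorescent compounds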
Target sequence (P07550 whole entry, looked up): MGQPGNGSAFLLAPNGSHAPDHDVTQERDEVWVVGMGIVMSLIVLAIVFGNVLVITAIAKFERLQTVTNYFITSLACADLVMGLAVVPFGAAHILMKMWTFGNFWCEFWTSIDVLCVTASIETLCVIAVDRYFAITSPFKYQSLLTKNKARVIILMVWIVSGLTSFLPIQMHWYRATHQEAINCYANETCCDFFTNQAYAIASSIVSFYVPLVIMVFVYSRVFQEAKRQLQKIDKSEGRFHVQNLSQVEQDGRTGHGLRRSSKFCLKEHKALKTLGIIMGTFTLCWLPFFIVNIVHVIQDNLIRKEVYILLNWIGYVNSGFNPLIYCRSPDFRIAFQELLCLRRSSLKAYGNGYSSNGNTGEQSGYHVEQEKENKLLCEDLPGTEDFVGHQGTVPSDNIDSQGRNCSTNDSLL
UCH37 DUB inh – blocks the human deubiquitinase UCH37. purified proteasome/UCH37, Ub-AMC cleavage fluorescence. Q9Y5K5. AID 588478. inhibition, % (concentration not given with the values). hit rate 0.33% among 330,000;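 active = mean of two replicates above 20%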;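 note: 0% = compound-free wells with enzyme and 100% = wells lacking proteasome; stock transfer was 100 nL into about 20 µL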
Target sequence (Q9Y5K5 whole entry, looked up): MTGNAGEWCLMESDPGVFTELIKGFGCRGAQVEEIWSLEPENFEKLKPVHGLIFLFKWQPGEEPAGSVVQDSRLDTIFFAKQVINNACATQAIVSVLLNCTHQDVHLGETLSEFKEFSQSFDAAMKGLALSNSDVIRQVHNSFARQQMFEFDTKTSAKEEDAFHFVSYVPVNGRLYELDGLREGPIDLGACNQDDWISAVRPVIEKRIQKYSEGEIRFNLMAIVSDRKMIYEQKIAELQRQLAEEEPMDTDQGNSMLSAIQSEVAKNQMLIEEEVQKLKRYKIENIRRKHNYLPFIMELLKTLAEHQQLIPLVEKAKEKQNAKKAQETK
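Material: human UCH37 enzyme supplied as purified proteasome complex. Measure: % inhibition of Ub-AMC cleavage fluorescence. Medium: pH 7.4 Tris-HCl (50 mM) with ovalbumin, ATP-MgCl2, DTT. Times: 30 min preincubation with enzyme, 25 min cleavage at room temperature. Detection: AMC fluorescence intensity at 355/460 nm.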
Calb FLC – affects C. albicans growth with fluconazole; hit rate 0.57% among 300,000; AID 1979; growth inhibition, % (no concentration beside the values); C. albicans CaCi-2 (fluconazole-resistant clinical isolate) + fluconazole, Alamar Blue growth, 48 h;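 active = most replicates above 75%; inconclusive = exactly half above 75%; inactive = most below 75%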;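 note: all wells also contain fluconazole at 8 µg/ml as a sub-toxic cotreatment; 0% = median of DMSO wells and 100% = median of geldanamycin control wells; wells of about 8 µL received 7.5 nL stock; the first replicate is given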
T cruzi inh – blocks replication of Trypanosoma cruzi; T. cruzi beta-gal in NIH3T3, luminescence, 90 h; inhibition, % (no concentration beside the values); hit rate 1.4% among 300,000; AID 1885;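 active = mean inhibition across valid replicates above about 55%, limit read from the data; inconclusive = mean below that limit but half or more replicates reach it; inactive = mean below it, under half of replicates reach it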;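 note: signal also drops with host cell toxicity which is not excluded here; 0% = plate median of DMSO wells and 100% = zero luminescence signal; higher percent means less beta-gal luminescence so fewer parasites; stock transfer was 50 nL into about 50 µL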
LANA-H2B inh – blocks KSHV LANA binding to histone H2A/H2B; cell-free LANA-H2A/H2B peptide, fluorescence polarization; inhibition, % (concentration not given with the values); hit rate 0.6% among 320,000; in the data active = inhibition mostly above about 10%, no sharp cut-off; inactive = mostly below about 6.7%;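 note: stock transfer was 7.5 nL into about 10 µL; 0% = median of vehicle wells and 100% = median of positive control wells; one replicate is shown; the record names a cut of 25% in any replicate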
A1 inh – inhibitors of the anti-apoptotic protein A1, read as caspase activation. MEF A1-2A-BIM cells, Caspase-Glo 3/7 luminescence, 3 h; percent of clofoctol response, vehicle zero. hit rate 0.066% among 330,000. caspase activation, % (test concentration not listed);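 active = over half of replicate activation scores above 10%, or exactly half above 10 with the replicate mean above 10; inconclusive = replicate mean below 10 yet half the replicates above 10; inactive = over half of replicates below 10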;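 note: wells of about 30 µL received 50 nL stock; many hits fall short of the cut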
RanGTP-Impb inh – disruptors of Ran-importin-beta complex formation – biochemical, FRET, CFP-Ran, YFP-importin-beta, homogeneous, primary screen. cell-free CFP-Ran/YFP-importin-beta FRET ratio. inhibition, % (test concentration not listed). hit rate 1.1% among 300,000. AID 2216;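 active = most replicates above 15%; inconclusive = exactly half above 15%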;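 note: 0% = DMSO wells and 100% = Ran loaded with GDP instead of GTP; wells of about 40 µL received 100 nL stock; the first replicate is given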
Beta apoptosis – beta cell apoptosis inhibition; hit rate 0.8% among 300,000; protection from apoptosis, % (no concentration beside the values); INS-1E cytokine-induced death, ATP luminescence, 48 h; percent of positive-control rescue, neutral wells zero;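 active = all replicates at 75% or more, or half of them and the mean; inconclusive = half reach 75% but not the mean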;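 note: 0% = cytokine-treated negative control wells and 100% = positive control rescue; higher means more ATP so stronger rescue from cytokine killing; wells of about 40 µL received 100 nL stock; the first replicate is given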
* marks the source's active call; other numbers are inactive results; ? = inconclusive; / = no result given. The order is random; any-hit rate near 4.3%.

SMILES | B2AR ag | UCH37 DUB inh | Calb FLC | T cruzi inh | LANA-H2B inh | A1 inh | RanGTP-Impb inh | Beta apoptosis
O=C(CC(c1cccs1)S(=O)(=O)c1ccccc1)c1ccc(F)cc1 (stereo not given) | -2 | 2.0 | -11 | 0 | -6.3 | 0.5 | -4.5 | 0
Cc1ccc2[nH]c3c(NCc4ccco4)ncnc3c2c1 | 4 | -87 | 27 | -27 | -3.0 | 0.8 | 0.2 | 37
Cc1cccc(NC2=CC(=O)CC(C)(C)C2)c1C | 2 | -1.0 | 2 | -10 | 3.2 | 1.2 | -1.0 | /
CCn1c(SCC(=O)Nc2ccccc2C)nc2nc3c(cc2c1=O)COC(C)(C)C3 | -1 | 1.3 | 15 | 4 | -4.3 | 0.4 | 1.8 | -15
COc1ccccc1OCCNC(=O)CN1C(=O)NC2(CCCCC2)C1=O | -5 | 3.5 | / | / | -2.7 | -0.3 | / | -3
COc1ccc(/C=N/NS(=O)(=O)c2ccc(C)cc2)cc1OC(=O)c1ccc(C)cc1 | 6 | / | -5 | / | -9.0 | -0.5 | 8.1 | -6
CC(NC(=O)c1ccc(Br)o1)C1CC2CCC1C2 (stereo not given) | 0 | 3.3 | / | -9 | 3.7 | 0.0 | / | -20
Cc1ccc[n+](-c2nc([O-])sc2/C=N/Nc2ccc([N+](=O)[O-])cc2)c1 | -2 | / | -3 | 12 | -1.6 | -0.7 | -3.5 | 4
COC(CCN(C)C)(c1ccccc1)c1ccccc1 | 8 | 3.6 | -12 | -7 | 9.2 | 0.0 | -1.5 | 3
Cc1cc(CNC(=O)CC2C(=O)NCCN2Cc2ccc(-c3ccccc3)cc2)nn1C (stereo not given) | 0 | -1.6 | -3 | -1 | -9.0 | -0.3 | -4.3 | -6
CCOc1ccc(OCC(=O)Nc2nccs2)cc1 | -4 | 0.9 | 33 | 2 | 3.9 | -0.2 | 5.9 | 0
CC(C)c1ccc(S(=O)(=O)/N=C2\C=C(NS(=O)(=O)c3ccccc3)C(=O)c3ccccc32)cc1 | 3 | 9.1 | 38 | -8 | 2.7 | 0.1 | 0.9 | /
O=C1CSC(c2ccccc2Br)N1c1ccc(Cl)cn1 (stereo not given) | 5 | 1.3 | -17 | 7 | -1.6 | 0.3 | 2.3 | -6
CCN(CC(F)(F)C(F)F)S(=O)(=O)c1ccc(NC(=O)OC)cc1 | 2 | 0.7 | 16 | 7 | 2.7 | 0.2 | 0.0 | -2
CCOc1ccc(-c2c(C(=O)N/N=C/C3CCCCC3)nnn2-c2nonc2N)cc1 | 5 | / | 8 | -17 | -0.1 | 0.0 | 5.5 | -2
CCOc1ccc(CCNC(=O)CCC(=O)N2CCOc3ccccc32)cc1OCC | -4 | 4.8 | -14 | 0 | 5.2 | -0.3 | -3.3 | -1
O=C(CC1SCCNC1=O)Nc1cccc([N+](=O)[O-])c1 (stereo not given) | -2 | 2.4 | -3 | -17 | 3.2 | 0.0 | 1.0 | -3
Cc1cc(C)n2c(-c3ccccc3Cl)nnc2n1 | 6 | -10 | 12 | 0 | 2.8 | 1.6 | -2.6 | -8
O=C(Oc1cccc2cccnc12)c1cccc(-n2cnnn2)c1 | 6 | 3.4 | 9 | 3 | 2.3 | -0.4 | -0.3 | -2
Fc1ccc2c(c1)C1OCCCC1C(c1ccccc1)N2 (stereo not given) | -8 | 2.0 | -6 | 9 | -0.1 | 0.0 | -0.2 | /
CCOc1cc(C2C(C(=O)OC(C)C)=C(C)NC3=C2C(=O)CCC3)cc([N+](=O)[O-])c1O (stereo not given) | -2 | 9.1 | 0 | -14 | 4.5 | -0.2 | -6.2 | 3
COc1ccc(C2CCCN2C(=O)c2cccs2)cc1 (stereo not given) | 9 | 1.3 | 1 | -7 | -1.0 | 0.1 | -3.0 | -2
CC(=O)NC(Cc1c[nH]c2ccccc12)C(=O)O (stereo not given) | -6 | 5.2 | -1 | -10 | -4.0 | -0.3 | 5.3 | 0
O=C(NCc1ccccn1)C1CCC(=O)N(Cc2ccc(Cl)cc2)C1 (stereo not given) | -1 | 2.5 | 3 | -8 | 0.7 | 1.9 | -2.4 | -2
C=CC[C@H](CC(=O)OC(C)(C)C)C(=O)OC[C@@H]1CCCN1C(=O)[C@@H](CC=C)CC(=O)N[C@H](CO)Cc1ccccc1 | 8 | 3.1 | / | / | -0.1 | 1.4 | / | 2
Cc1ccsc1/C=C1/SC(N2CCOCC2)=NC1=O | / | 12 | -6 | -8 | / | -0.8 | 1.6 | -6
COc1ccc(Br)cc1CN(C)C(=O)C1CC(=O)N(C2CCCC2)C1 (stereo not given) | -6 | -0.7 | / | / | -5.2 | -0.1 | / | -6
COc1ccc(CCNc2nc(C)cc(=O)[nH]2)cc1OC | 6 | 0.5 | -1 | -10 | 1.8 | 0.0 | -0.2 | -5
Cn1c(NC(=O)c2ccc(S(=O)(=O)N3CCCCC3)cc2)cc(=O)n(C)c1=O | 8 | 4.4 | 17 | 1 | 3.5 | 0.1 | -6.8 | -6
CC(Nc1cccc(F)c1)C(=O)Nc1ccc(S(N)(=O)=O)cc1 (stereo not given) | 0 | 1.4 | 15 | -1 | -0.9 | 1.2 | -0.7 | -1
COc1ccc(OC)c(NC(=O)CCN2CCN(Cc3ccccc3)CC2)c1 | 7 | 3.3 | -29 | 14 | 1.4 | 0.5 | -2.5 | -8
O=C(O)C(CCCCN1C(=O)c2ccccc2C1=O)N1C(=O)c2ccccc2C1=O (stereo not given) | 1 | -2.2 | -14 | -25 | -3.1 | 0.5 | -5.9 | -4
COc1ccc(Nc2nc(C(=O)NCc3ccco3)cs2)cc1 | -9 | 3.5 | 8 | -6 | -2.4 | -1.0 | ? | 2
OCCN1CCN(C(=S)c2ccc(Cl)c(Cl)c2)CC1 | 3 | 11 | -1 | -4 | 1.6 | -1.7 | 1.1 | -6
Cc1cc(C)nc(SCCN2CCCCC2)n1 | -6 | 2.9 | 0 | 4 | -0.1 | 0.3 | -4.0 | /
CC(C)(C)c1nc2scc(-c3ccc(Cl)cc3)c2c(=O)o1 | 14 | 2.0 | -1 | -3 | 1.0 | 1.1 | 0.1 | -2
CCC(C(=O)Nc1ccncc1)c1ccccc1 (stereo not given) | 4 | 2.6 | 29 | -34 | 5.4 | -0.5 | 0.9 | 29
Nc1nc(Nc2ccccc2F)nc(N2CCCC2)c1[N+](=O)[O-] | -7 | 7.0 | 6 | -3 | 0.8 | 0.5 | -4.6 | -2
O=C(C1CCC1)N1CCc2cc(S(=O)(=O)NC3CCCc4ccccc43)ccc21 (stereo not given) | -13 | 3.8 | 5 | 7 | 13 | 0.1 | -0.2 | 12
CCn1c(CSc2nc3ccccc3s2)n[nH]c1=S | 1 | 4.8 | 0 | 11 | -1.5 | 0.6 | 1.3 | -7
CNC(=O)Nc1cccc(NC(=O)NC)n1 | 5 | -0.5 | 1 | -7 | 5.4 | 1.5 | 5.9 | -6
c1cc2nnnn2nc1N1CCCCC1 | -3 | 4.8 | -7 | 1 | 7.0 | -0.2 | -1.9 | -2
O=C1CCCN1CCC1CCCCN1Cc1nc(COc2ccccc2)no1 (stereo not given) | -11 | 4.2 | -1 | -10 | -1.9 | 0.5 | 1.2 | 0
Cc1c(-n2c(SCC(=O)NC(C)C(C)C)nc3ccccc3c2=O)c(=O)n(-c2ccccc2)n1C (stereo not given) | 5 | 2.6 | -9 | -5 | 2.2 | 0.6 | -3.7 | -3
Cc1ccc(C)c(NC(=O)c2nc(-c3ccccc3)n(-c3ccccc3)n2)c1 | -1 | 2.6 | 10 | -3 | 1.7 | 1.1 | 5.9 | 5
CCCn1nnnc1SCC(=O)N1CCCc2ccccc21 | 6 | -0.2 | -8 | -11 | -0.4 | 1.0 | 1.1 | 5
Cc1ccc(NC(=O)CS(=O)CC(=O)Nc2cccc(C)c2C)cc1F (stereo not given) | 3 | 2.0 | 8 | -11 | 3.9 | 0.8 | 1.5 | -1
Cc1cc(C)c(C)c(S(=O)(=O)N2CCN(CC(=O)Nc3ccc([N+](=O)[O-])cc3)CC2)c1C | 1 | 4.8 | -1 | 14 | 0.7 | -0.8 | 2.2 | -11
CCCCn1c(N)c(N(Cc2ccccc2OC)C(=O)COc2ccc(F)cc2Cl)c(=O)[nH]c1=O | -2 | 4.2 | 5 | 0 | -0.7 | 0.6 | -2.4 | -3
O=C(Nc1ccccc1Cl)c1ccccc1Oc1ccc(C(F)(F)F)cc1[N+](=O)[O-] | 3 | 5.7 | 19 | 21 | 3.7 | 1.1 | -2.8 | 5
CC1CCc2c(sc(NC(=O)c3ccco3)c2C(=O)O)C1 (stereo not given) | 41 | 4.2 | 11 | -4 | -16 | -11 | 2.5 | 2
COc1cc2c(cc1OC)C(/C(C#N)=N\O)=NC(C)(C)C2 | 2 | / | -9 | -14 | 3.3 | -1.7 | -0.8 | 4
O=C(NCc1ccccc1CN1CCCCC1)c1ccc(Cl)cc1N1CCCC1=O | -4 | 2.3 | / | / | 0.1 | -0.3 | / | -6
COCc1c(C(=O)OCC(=O)NCCc2ccc(S(N)(=O)=O)cc2)oc2ccccc12 | 4 | 3.0 | / | / | 4.7 | 0.1 | / | 2
COc1cccc2c1OC[C@@H](CO)[C@H]2N(C)C(=O)Nc1ccc(Cl)cc1 | 7 | 3.9 | -13 | -18 | 4.2 | 0.0 | 0.2 | 9
Brc1ccc(CSc2nnc(Cc3c[nH]c4ccccc34)o2)cc1 | -8 | 3.9 | 26 | 6 | -3.9 | -0.8 | 2.2 | 8
Fc1cccc(Cl)c1/C=N/n1c(-c2cccnc2)n[nH]c1=S | -4 | / | -16 | -4 | -1.0 | -0.1 | -2.6 | -6

Of the compounds above, these contain a nitro group on carbon.
SMILES | B2AR ag | UCH37 DUB inh | Calb FLC | T cruzi inh | LANA-H2B inh | A1 inh | RanGTP-Impb inh | Beta apoptosis
Cc1ccc[n+](-c2nc([O-])sc2/C=N/Nc2ccc([N+](=O)[O-])cc2)c1 | -2 | / | -3 | 12 | -1.6 | -0.7 | -3.5 | 4
O=C(CC1SCCNC1=O)Nc1cccc([N+](=O)[O-])c1 (stereo not given) | -2 | 2.4 | -3 | -17 | 3.2 | 0.0 | 1.0 | -3
CCOc1cc(C2C(C(=O)OC(C)C)=C(C)NC3=C2C(=O)CCC3)cc([N+](=O)[O-])c1O (stereo not given) | -2 | 9.1 | 0 | -14 | 4.5 | -0.2 | -6.2 | 3
Nc1nc(Nc2ccccc2F)nc(N2CCCC2)c1[N+](=O)[O-] | -7 | 7.0 | 6 | -3 | 0.8 | 0.5 | -4.6 | -2
Cc1cc(C)c(C)c(S(=O)(=O)N2CCN(CC(=O)Nc3ccc([N+](=O)[O-])cc3)CC2)c1C | 1 | 4.8 | -1 | 14 | 0.7 | -0.8 | 2.2 | -11
O=C(Nc1ccccc1Cl)c1ccccc1Oc1ccc(C(F)(F)F)cc1[N+](=O)[O-] | 3 | 5.7 | 19 | 21 | 3.7 | 1.1 | -2.8 | 5

Screens as filed in PubChem.
